Ecoli rRNA inh: reduced GFP signal of wild-type E. coli, primary screen, bacterial rRNA inhibitor project, GFP/RFP fluorescence, OD600, single point | E. coli WT GFP vs humanized-ribosome RFP mutants, 24 h; hits give low values; DMSO median 0, no signal -100 | GFP signal change (wild-type ribosome), % (concentration not given with the values) | 350,000 compounds, 1.6% hits;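 active means significant combined selectivity score with lowered wild-type GFP, culture density cut under 30%, mutant RFP and density less affected; inactive means any of these conditions unmet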; further: one replicate is shown; some compounds called inactive have numbers as strong as hits
AF4-AF9 inh: inhibitors of AF4 peptide binding to AF9, primary screen, biochemical, AlphaScreen, biotin-AF4 peptide, FLAG-AF9, single point. inhibition, % at 10 µM. 350,000 compounds, 0.47% hits;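 active means every replicate reaching a set inhibition limit, whatever the replicate mean, cut at about 25% in these data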;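 further: 0% = plate neutral control median and 100% = total signal loss; the record names both 10 and 1 µM as test concentration; the first replicate is given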
Target sequence (P42568 whole entry, looked up): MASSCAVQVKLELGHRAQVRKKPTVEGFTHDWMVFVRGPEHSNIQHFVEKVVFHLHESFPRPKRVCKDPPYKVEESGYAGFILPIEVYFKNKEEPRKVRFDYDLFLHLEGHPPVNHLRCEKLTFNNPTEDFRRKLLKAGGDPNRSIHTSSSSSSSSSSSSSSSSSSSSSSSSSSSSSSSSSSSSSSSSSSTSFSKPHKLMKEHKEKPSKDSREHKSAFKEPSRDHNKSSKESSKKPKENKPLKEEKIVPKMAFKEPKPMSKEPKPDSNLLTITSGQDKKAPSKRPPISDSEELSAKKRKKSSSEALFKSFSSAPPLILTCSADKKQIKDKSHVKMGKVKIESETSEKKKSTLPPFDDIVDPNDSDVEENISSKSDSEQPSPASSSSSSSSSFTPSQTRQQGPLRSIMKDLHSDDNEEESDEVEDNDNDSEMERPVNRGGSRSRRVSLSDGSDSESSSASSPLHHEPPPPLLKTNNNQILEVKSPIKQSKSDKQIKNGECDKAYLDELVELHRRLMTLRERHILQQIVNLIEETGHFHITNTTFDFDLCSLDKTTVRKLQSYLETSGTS
Ecoli rRNA inh OD600: second read-out of Ecoli rRNA inh, no call of its own (marks repeat the call); OD600 change, %; measured here: OD600 growth;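 optical density of the mix in the first replicate; 0 = DMSO median and -100 = no signal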
Ecoli rRNA inh RFP: second read-out of Ecoli rRNA inh, no call of its own (marks repeat the call); RFP signal change, %; measured here: RFP humanized mutant strains;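 first replicate; 0 = DMSO median and -100 = no signal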
The depositor's hits bear a star; & = joins results of further samples. Not all compounds are listed (hit frequency here may not be typical).

SMILES	Ecoli rRNA inh	Ecoli rRNA inh OD600	Ecoli rRNA inh RFP	AF4-AF9 inh
COCC(=O)N1CC2(C1)[C@H](c1ccc(-c3cccc(F)c3)cc1)[C@H](CO)N2C(=O)COC	-3	-1	1.2	0.6
COc1ccc([C@H]2CC(=O)C[C@@H](CCn3cc(CC4CCCC4)nn3)O2)cc1	-26	-26	0.4	-1.2
Cc1ccccc1-c1cnc2c(c1)C(=O)N([C@H](C)CO)C[C@H](C)[C@H](CN(C)C(=O)c1ccncc1)O2	0	4	-2.9	0.0
C[C@H]1CN([C@@H](C)CO)C(=O)c2cc(NC(=O)C3CCCCC3)ccc2O[C@@H]1CN(C)S(=O)(=O)c1ccc(F)cc1	-2	2	0.0	-2.1
COCCNC(=O)c1cc2c(c(-c3cccc(-c4cc5ccccc5o4)c3)n1)[C@@H](CCO)N(S(=O)C(C)(C)C)C2 (some centres not stated)	-51	-78	-9.3	11
CCCCOCCCNC(=O)C[C@H]1C[C@@]2(C(=O)OC)C(=C[C@H](COCc3ccccc3)O[C@@H]2C)N(CCC2=CCCCC2)C1=O	2	3	4.7	-5.8
CO[C@@H]1CN(C)C(=O)c2cc(NC(=O)C3CC3)ccc2OC[C@H](C)N(CC2CCOCC2)C[C@H]1C	0	-5	-0.3	-9.8
C[C@@H]1CN([C@@H](C)CO)C(=O)c2cccc(NS(=O)(=O)c3ccc(Cl)cc3)c2O[C@H]1CN(C)CC1CC1	3	2	1.3	-0.2
CO[C@@H]1CN(C)C(=O)c2cc(NC(=O)c3ccccc3)ccc2OC[C@H](C)N(C(C)=O)C[C@H]1C	1	6	0.2	-4.2
CCCCc1c(-c2ccccc2OC)ncn1CCc1ccccc1Cl	-32	-81	-25	13
CCNC(=O)[C@H]1[C@H](CO)[C@H]2Cn3c(ccc(-c4cncnc4)c3=O)[C@H]2N1C(=O)c1ccccc1F	-1	-6	-0.1	1.8
COc1ccc(NC(=O)N(C)C[C@@H]2Oc3ccc(NC(=O)C4CC4)cc3C(=O)N([C@H](C)CO)C[C@H]2C)cc1	3	9	-1.6	-1.6
COCC(=O)Nc1ccc2c(c1)C(=O)N(C)C[C@H](OC)[C@H](C)CN(Cc1ccccn1)[C@@H](C)CO2	1	-1	-0.7	0.7
CC(=O)N(C)C[C@@H]1Oc2cc(C#CCC(C)C)ccc2S(=O)(=O)N([C@@H](C)CO)C[C@@H]1C	-4	-13	-2.5	1.8
CNC[C@H]1Oc2ccc(NS(=O)(=O)c3ccc(F)cc3)cc2C(=O)N([C@H](C)CO)C[C@@H]1C	9	1	-2.5	-21
CC(C)NC(=O)N(C)C[C@@H]1OCCCC[C@H](C)Oc2ccc(NC(=O)Cc3ccccc3)cc2C(=O)N([C@@H](C)CO)C[C@H]1C	2	5	-2.3	-16
CO[C@H]1CN(C)C(=O)c2ccc(NC(=O)C3CCCC3)cc2OC[C@H](C)N(C(=O)CC2CC2)C[C@@H]1C	-5	-11	1.0	-1.4
COc1ccc(-c2cnc3c(NC=O)cc(-c4ccccc4)cn23)cc1OC	16	-3	2.7	2.7
COc1ccc(NC(=O)N2C[C@@H]3N[C@H](C2)[C@@H]3c2ccc(-c3ccc(OC)cc3)cc2)cc1	-17	-26	-4.4	3.4
CCCNC(=O)N(C)C[C@@H]1Oc2cc(C#CCC(C)C)ccc2S(=O)(=O)N([C@H](C)CO)C[C@@H]1C	-8	-27	6.7	1.5
CCCNC(=O)N1C[C@H]2[C@@H](c3ccccc31)[C@@H](CO)N2Cc1ccc(F)cc1	-1	2	-0.3	0.6
Cc1noc(C)c1NC(=O)N(C)C[C@H]1OCCCC[C@H](C)Oc2ccc(N(C)C)cc2C(=O)N([C@H](C)CO)C[C@H]1C	1	0	-1.4	-13
CO[C@@H]1CN(C)C(=O)c2cc(NS(=O)(=O)CC(F)(F)F)ccc2OC[C@@H](C)N(Cc2ccccn2)C[C@@H]1C	-2	4	0.1	-15
CCCC#Cc1cnc2c(c1)C(=O)N([C@H](C)CO)C[C@@H](C)[C@@H](CN(C)C(=O)C1CCC1)O2	6	8	3.6	-2.5
COc1ccc(CN(C)C[C@@H]2OCCCC[C@H](C)Oc3ccc(N(C)C)cc3C(=O)N([C@H](C)CO)C[C@@H]2C)cc1	-1	3	-2.1	8.4
CCCNC(=O)[C@H]1[C@H](CO)[C@H]2Cn3c(ccc(-c4ccncc4)c3=O)[C@@H]1N2CC1CC1	3	3	-3.4	-2.3
C[C@@H]1CN([C@@H](C)CO)C(=O)c2cccc(NC(=O)C3CCOCC3)c2O[C@H]1CN(C)C(=O)Nc1ccc(C(F)(F)F)cc1	-3	6	-1.8	-4.4
O=C(C[C@@H]1CC[C@@H]2[C@H](COC[C@H](O)CN2S(=O)(=O)c2ccc(Oc3ccccc3)cc2)O1)NCCN1CCCCC1	-5	-10	-1.0	5.7
COc1ccc2c3c([nH]c2c1)[C@H](CO)N(C(=O)c1ccccc1)CC31CN(C)C1	4	4	-4.1	-0.5
CO[C@H]1CN(C)C(=O)c2ccc(NC(=O)Nc3ccc(Cl)cc3)cc2OC[C@@H](C)N(C(=O)Nc2c(C)noc2C)C[C@H]1C	-4	-13	1.2	3.6
COCC(=O)Nc1ccc2c(c1)[C@@H]1C[C@@H](CC(=O)N(C)C)O[C@@H](CO)[C@@H]1O2	2	14	-1.3	-0.8
C[C@@H]1CN([C@H](C)CO)C(=O)c2ccccc2-c2ccccc2CO[C@@H]1CN(C)Cc1ccc(-c2ccccc2)cc1	2	17	-3.7	3.3
O=C(NCCO)c1cccc(-c2cc(Nc3ccc(OC(F)(F)F)cc3)ncn2)c1	-16	-21	6.3	-1.0
C[C@@H]1CN([C@H](C)CO)C(=O)Cc2cc(NC(=O)Cc3cn(C)c4ccccc34)ccc2O[C@@H]1CN(C)C(=O)Nc1ccc2c(c1)OCO2	-3	-8	0.0	2.7
CCNC(=O)C1(C)CCN1C(=O)Cc1ccc(C(C)C)cc1 (configuration not stated)	6	2	-2.1	1.6
C/C=C/c1ccc([C@H]2[C@@H](CO)N(CC3CCCCC3)[C@H]2CNC(C)=O)cc1	-3	-11	1.4	-0.4
O=C(C[C@@H]1CC[C@@H](NC(=O)c2ccccn2)[C@@H](CO)O1)NCc1cccc(F)c1	-5	-22	3.0	0.8
CCC(=O)Nc1ccc2c(c1)C(=O)N(C)[C@@H]1CC[C@@H](CC(=O)NC3Cc4ccccc4C3)O[C@H]1CO2	2	-6	-1.8	-8.9
CCOc1ccc(OCCC(=O)N(CC(C)C)c2c(N)n(Cc3ccccc3)c(=O)[nH]c2=O)cc1	3	2	-3.6	6.3
C[C@H]1CN([C@@H](C)CO)C(=O)c2cccc(NS(=O)(=O)c3ccccc3)c2O[C@H]1CN(C)Cc1ccccc1	-1	9	-0.4	-3.0
O=C(Nc1ccc(F)cc1)N1CC(=O)N2[C@H](CO)[C@H](c3ccc(C#CC4CC4)cc3)[C@@H]2C1	-3	-8	3.5	3.0
O=C1C(=Cc2cccc(F)c2)Cc2ccccc21	3	11	-2.5	1.0
Cc1noc(C)c1NC(=O)N(C)C[C@H]1Oc2ccc(NC(=O)Nc3ccc(C(F)(F)F)cc3)cc2CC(=O)N([C@H](C)CO)C[C@H]1C	-2	-8	-0.3	-2.7
C[C@@H]1CCCCO[C@H](CN(C)Cc2ccc3c(c2)OCO3)[C@H](C)CN([C@@H](C)CO)C(=O)c2cc(NC(=O)c3ccncc3)ccc2O1	-2	1	-0.9	0.1
CC(C)NC(=O)N(C)C[C@H]1Oc2ccc(NC(=O)NC3CCCCC3)cc2C(=O)N([C@H](C)CO)C[C@H]1C	1	0	-1.1	-1.0
C[C@@H]1CN([C@H](C)CO)C(=O)c2cc(NC(=O)Nc3ccc4c(c3)OCO4)ccc2O[C@H]1CN(C)Cc1ccc(C(=O)O)cc1	-2	0	-0.7	-0.2
C[C@H](CO)N1C[C@H](C)[C@@H](CN(C)S(=O)(=O)c2ccc(Cl)cc2)Oc2ccc(NC(=O)Cc3ccccc3)cc2CC1=O	3	1	3.8	3.4
CCN(c1ccc(NC(=O)COC(=O)C2CCN(c3ccc(C(F)(F)F)cn3)CC2)cc1)C(C)C	0	-10	1.5	7.9
Cc1ccc(S(=O)(=O)Nc2ccc3c(c2)C(=O)N([C@H](C)CO)C[C@@H](C)[C@@H](CN(C)C(=O)Nc2ccc(F)cc2)O3)cc1	2	0	-4.3	-1.4
C[C@H]1CN([C@@H](C)CO)S(=O)(=O)c2ccc(-c3ccccc3)cc2O[C@@H]1CN(C)C(=O)c1ccc2c(c1)OCO2	-11	-15	1.4	-4.4
C[C@@H]1CCCCO[C@H](CN(C)C)[C@@H](C)CN([C@@H](C)CO)C(=O)c2cc(NS(=O)(=O)c3ccc(Cl)cc3)ccc2O1	3	0	-0.1	-0.1
CCCN1[C@@H]2c3ccc(-c4ccccc4)c(=O)n3C[C@H]1[C@H](CO)[C@H]2C(=O)N1CCCCC1	3	1	-0.8	-0.9
C[C@H](CO)N1C[C@H](C)[C@@H](CN(C)Cc2ccncc2)Oc2ccc(NS(=O)(=O)c3ccc(Cl)cc3)cc2CC1=O	-3	-16	4.5	4.4
C[C@@H]1CN([C@@H](C)CO)C(=O)CCCn2nncc2CO[C@@H]1CN(C)C(=O)Nc1ccc2c(c1)OCCO2	2	-1	0.4	-1.8
O=C(C1CC1)N1CC2(C1)[C@H](c1ccccc1)[C@H](CO)N2CCC(F)(F)F	-1	2	-3.6	-2.8
CO[C@@H]1CN(C)C(=O)c2cc(NC(=O)Nc3ccccc3)ccc2OC[C@H](C)N(C(=O)CC2CC2)C[C@@H]1C	-7	-9	4.2	1.0
C[C@@H]1CN([C@H](C)CO)C(=O)CCCn2cc(nn2)CO[C@H]1CN(C)Cc1ccc(C(F)(F)F)cc1	0	-2	-0.8	-2.1
CCC(=O)NC[C@@H]1[C@H](c2ccc(C3=CCCC3)cc2)[C@H](CO)N1C(C)=O	-2	-5	-1.1	1.5
C[C@H]1CCCCO[C@@H](CN(C)C(=O)Nc2ccccc2)[C@@H](C)CN([C@@H](C)CO)C(=O)c2cc(NC(=O)Nc3ccccc3)ccc2O1	1	5	-1.3	1.8
CCC(=O)Nc1ccc2c(c1)OC[C@H](C)N(C(=O)CN1CCOCC1)C[C@H](C)[C@@H](OC)CN(C)C2=O	2	2	-2.8	-0.6

(next part)
SMILES	Ecoli rRNA inh	Ecoli rRNA inh OD600	Ecoli rRNA inh RFP	AF4-AF9 inh
C[C@@H]1CN([C@H](C)CO)C(=O)Cc2cc(NC(=O)Nc3ccc(C(F)(F)F)cc3)ccc2O[C@H]1CN(C)S(=O)(=O)c1cn(C)cn1	-1	11	-1.3	1.7
Cc1ccc(S(=O)(=O)Nc2ccc3c(c2)CC(=O)N([C@@H](C)CO)C[C@@H](C)[C@@H](CN(C)C(=O)Nc2ccc(F)cc2)O3)cc1	-2	-1	2.8	-0.8
CC(=O)Nc1ccc2c(c1)C(=O)N(C)[C@@H]1CC[C@H](CC(=O)Nc3cn(C)nc3C)O[C@H]1CO2	-1	-6	-2.9	0.2
COc1ccc(-c2ccc(C(=O)N3CCOCC3)c3occc23)c(C)c1	-12	-40	9.8	-0.4
CC(C)NC(=O)N(C)C[C@H]1Oc2c(NC(=O)c3ccncc3)cccc2C(=O)N([C@H](C)CO)C[C@H]1C	0	9	-2.1	-1.7
CO[C@@H](CN(C)C(=O)c1ccccc1F)[C@H](C)CN([C@@H](C)CO)S(=O)(=O)c1ccc(C)cc1	-4	5	-2.6	-0.3
C[C@@H]1CN([C@H](C)CO)C(=O)CCCn2nncc2CO[C@H]1CN(C)Cc1cccc(C(F)(F)F)c1	3&-7	1&-5	-0.4&-0.4	-2.9&-3.8
O=C(CN1CCOCC1)N[C@@H]1CC[C@H](CCNC(=O)Nc2cc(F)ccc2F)O[C@@H]1CO	-1	-5	1.3	0.3
C[C@@H](NC(=O)C[C@@H]1CC[C@H](NC(=O)c2cccnc2)[C@@H](CO)O1)c1ccccc1	1	-1	0.1	-1.7
COc1ccc(NC(=O)Nc2ccc3c(c2)CC(=O)N([C@H](C)CO)C[C@H](C)[C@@H](CN(C)Cc2ccc(C(=O)O)cc2)O3)cc1	-1	0	-0.7	0.2

6 entries already listed, ordered by molecular weight, high to low.
SMILES	Ecoli rRNA inh	Ecoli rRNA inh OD600	Ecoli rRNA inh RFP	AF4-AF9 inh
C[C@@H]1CN([C@H](C)CO)C(=O)Cc2cc(NC(=O)Nc3ccc(C(F)(F)F)cc3)ccc2O[C@H]1CN(C)S(=O)(=O)c1cn(C)cn1	-1	11	-1.3	1.7
Cc1ccc(S(=O)(=O)Nc2ccc3c(c2)CC(=O)N([C@@H](C)CO)C[C@@H](C)[C@@H](CN(C)C(=O)Nc2ccc(F)cc2)O3)cc1	-2	-1	2.8	-0.8
COc1ccc(NC(=O)Nc2ccc3c(c2)CC(=O)N([C@H](C)CO)C[C@H](C)[C@@H](CN(C)Cc2ccc(C(=O)O)cc2)O3)cc1	-1	0	-0.7	0.2
CC(C)NC(=O)N(C)C[C@H]1Oc2c(NC(=O)c3ccncc3)cccc2C(=O)N([C@H](C)CO)C[C@H]1C	0	9	-2.1	-1.7
CO[C@@H](CN(C)C(=O)c1ccccc1F)[C@H](C)CN([C@@H](C)CO)S(=O)(=O)c1ccc(C)cc1	-4	5	-2.6	-0.3
O=C(CN1CCOCC1)N[C@@H]1CC[C@H](CCNC(=O)Nc2cc(F)ccc2F)O[C@@H]1CO	-1	-5	1.3	0.3

Bioassay records (PubChem)
